FPR: small-molecule ligands of human FPR – U937-FPR cells, fMLFK-FITC, flow cytometry, primary screen (AID 362). U937-FPR cells, fMLFK-FITC displacement, flow cytometry; active compounds read high; test concentration not given here; most inactive calls were filed without a number and no value below 0 was filed. inhibition, %. actives 1% (n = 4,300);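 active = inhibition of labelled peptide binding to the formyl peptide receptor of at least 65%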;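 note: plate controls were buffer control wells for no effect and unlabeled fMLFF blocking peptide for full effect; higher means less cell fluorescence so more probe displaced; part of the set was picked by virtual screening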
The depositor's hits bear a star; i = inactive.

CCCCC(Sc1nc2cc3c(cc2c(=O)n1CCCC(=O)NCc1ccc(OC)cc1)OCO3)C(=O)OCC (stereo unspecified)
  FPR: i

COc1cc(C)nc(N(CC(C)C)S(=O)(=O)c2ccc(C)cc2)n1
  FPR: 10

CCOc1cc(C2C(C(=O)OCC(C)C)=C(C)NC3=C2C(=O)CC(c2cccs2)C3)ccc1O (stereo unspecified)
  FPR: i

O=C(C1CCC(CNS(=O)(=O)c2ccc(Br)s2)CC1)N1CC=C(c2ccccc2)CC1 (stereo unspecified)
  FPR: i

CCCCN(CC)C(=O)c1cc2cc3ccc(OC)cc3nc2s1
  FPR: 18

COc1ccc(/C=C2\CCC/C(=C\c3ccc(OC)c(OC)c3OC)C2=O)c(OC)c1OC
  FPR: i

CN(C)C(=O)COc1cc2oc(=O)c3c(c2cc1Cl)CCCC3
  FPR: 4

CCCCOc1ccc2c(=O)c(Oc3ccc(OC)cc3)c(C(F)(F)F)oc2c1
  FPR: 12

CC1CC(C)CN(C(=O)c2ccc(SCc3ccccn3)c([N+](=O)[O-])c2)C1 (stereo unspecified)
  FPR: 0

CCOC(=O)c1cc2c(=O)n3ccccc3nc2n(CC(C)C)c1=NC(=O)c1ccc(C(C)(C)C)cc1
  FPR: i

CC1=C(C(=O)OC2CCCC2C)C(c2cccc([N+](=O)[O-])c2)NC(=O)N1 (stereo unspecified)
  FPR: 15

CCOc1ccccc1N(C)C(=O)c1cn(CC(C)C)c(=O)c2cc(OC)c(OC)cc12
  FPR: 9

CC(=O)N1CCCc2cc(S(=O)(=O)NC3CCCC3)ccc21
  FPR: i

CCOC(=O)c1cc2c(=O)n3ccccc3nc2n(CC(C)C)c1=NC(=O)c1cccc(C(F)(F)F)c1
  FPR: i

CCOc1ccc(C(=O)CCNC(C(=O)O)C(C)C)cc1 (stereo unspecified)
  FPR: i

Cc1ccc(CNC(=O)CCCCCn2c(SCC(=O)NCc3ccc(C)cc3)nc3ccsc3c2=O)cc1
  FPR: i

CC(=O)OC1(C#CCN2CCCCC2)CCCCC1
  FPR: i

COc1ccc2c(c1)CC/C(=C\c1cn(-c3ccccc3)nc1CC(C)C)C2=O
  FPR: i

O=C(c1cc2c(=O)n3ccccc3nc2s1)N1CCCCCC1
  FPR: i

COc1ccccc1N=CC1=C(O)CC(C)(C)CC1=O
  FPR: i

CCC(C)C(NC(=O)OCc1ccccc1)C(=O)NC(Cc1ccccc1)C(=O)OC (stereo unspecified)
  FPR: i

CCOc1cc(C2C(C(=O)OC3CCCCCC3)=C(C)NC3=C2C(=O)CCC3)cc([N+](=O)[O-])c1O (stereo unspecified)
  FPR: 66*

CC1CC(C)CN(C(=O)C2CCC(CNS(=O)(=O)c3ccccc3)CC2)C1 (stereo unspecified)
  FPR: i

CCOc1cc(C2C(C(=O)OCCSCC)=C(C)NC3=C2C(=O)C(C(=O)OC)C(C)C3)ccc1OC(C)=O (stereo unspecified)
  FPR: 18

O=c1oc2c3c(ccc2c2c1CCC2)OCN(c1ccc(F)cc1)C3
  FPR: 6

COC(=O)C1C(=O)C2=C(CC1C)NC(C)=C(C(=O)OC(C)C)C2c1cc(OC)c(OC)c(OC)c1 (stereo unspecified)
  FPR: 18

CCC(C)(C(=O)NC1CCCCC1)N(Cc1ccco1)C(=O)CC1NC(=O)NC1=O (stereo unspecified)
  FPR: i

CCOC(=O)C1=C(C)NC2=C(C(=O)C(C(=O)OCC)C(c3ccccc3OC)C2)C1c1ccccc1C(F)(F)F (stereo unspecified)
  FPR: 4

CCOC(=O)c1cnc2c(OC)cccc2c1N1CC(C)CC(C)C1 (stereo unspecified)
  FPR: 42

CCCc1c(C(=O)OCC)[nH]c2c1C(=O)CC(c1ccc(OC)c(OC)c1)C2 (stereo unspecified)
  FPR: 2

COCCCNC(=O)CSc1nc2ccsc2c(=O)n1CCCCCC(=O)O
  FPR: i

COc1ccccc1C1/C(=C(\O)c2ccc(F)cc2)C(=O)C(=O)N1CCCCCC(=O)O (stereo unspecified)
  FPR: 11

COC(=O)C1C(=O)C2=C(CC1C)NC(C)=C(C(=O)OC1CCCCC1)C2c1cccc(OC)c1OC (stereo unspecified)
  FPR: i

COc1ccc(NC(=O)CCCCCn2c(SCC(=O)OCc3ccccc3)nc3ccsc3c2=O)cc1
  FPR: i

CCCC1OCC2(COC(=O)c3ccccc3)C(C)C=C(C)C1C2C (stereo unspecified)
  FPR: i

COC(=O)C1C(=O)C2=C(CC1C)NC(C)=C(C(=O)OC(C)C)C2c1cccs1 (stereo unspecified)
  FPR: 1

COc1ccc(C(C(=O)NC2CCCCC2)N2CCCC(C)C2)cc1 (stereo unspecified)
  FPR: 1

COc1ccc(C(=O)CSc2nc(N)c(C#N)c(C3CCCCC3)c2C#N)cc1
  FPR: i

CC1(C)CC(=O)C2=C(C1)OC(N)=C(C#N)C21C(=O)N(CC(=O)OCc2ccccc2)c2ccccc21 (stereo unspecified)
  FPR: 24

O=C(O)CCCCCn1c(SCC(=O)NCC2CCCO2)nc2ccsc2c1=O (stereo unspecified)
  FPR: i

CCCCCCCOC(=O)C1=C(C)NC(=O)NC1c1ccc(OCC)cc1 (stereo unspecified)
  FPR: i

CCCOC(=O)C1=C(C)NC2=C(C(=O)C(C(=O)OC)C(C)C2)C1c1cccc(OC)c1 (stereo unspecified)
  FPR: 21

CC(=O)Nc1ncc2c(n1)CC(C)(C)CC2=O
  FPR: i

CC1CCCN(c2ccc(N3C(=O)CCCC3=O)cc2[N+](=O)[O-])C1 (stereo unspecified)
  FPR: i

COc1cccc(C2C(=O)N(C3CCCCC3)CC(=O)N2C2CCCc3ccccc32)c1 (stereo unspecified)
  FPR: i

CCCCSCCCNC(=O)C1CCC(CNS(=O)(=O)c2ccc(Cl)cc2)CC1 (stereo unspecified)
  FPR: 15

CC1=C(C(=O)OCC(C)C)C(c2ccc(OCc3ccccc3)cc2)C2=C(CCCC2=O)N1 (stereo unspecified)
  FPR: i

O=C(c1cc(S(=O)(=O)N2CCC3(CC2)OCCO3)ccc1F)N1CCCCC1
  FPR: 0

O=C(NCCc1ccccc1)C1CCC(CNS(=O)(=O)c2ccc(F)cc2)CC1 (stereo unspecified)
  FPR: 1

COc1ccccc1NC(=O)CSc1nc2ccccc2c(=O)n1CC1CCC(C(=O)NCCc2ccccc2)CC1 (stereo unspecified)
  FPR: i

CCOC(=O)c1c(NC(=O)C2C3CCC(C3)C2C(=O)O)sc(C)c1-c1ccc(Cl)cc1 (stereo unspecified)
  FPR: 46

CCN(CC)CCCNC(=O)C1CCC(CNS(=O)(=O)c2ccc(Cl)cc2)CC1 (stereo unspecified)
  FPR: i

CC(=O)N1CCc2cc(S(=O)(=O)NC(C(=O)NC3CCCc4ccccc43)C(C)C)ccc21 (stereo unspecified)
  FPR: i

Cc1nc(-c2c(C(F)(F)F)oc3cc(O)ccc3c2=O)cs1
  FPR: i

O=C(NC1CCCC1)C1CCC(CNS(=O)(=O)c2cccs2)CC1 (stereo unspecified)
  FPR: 19

CCc1ccc(C(=O)c2c(S(=O)(=O)CC)c(S(=O)(=O)CC)c3cc(C(C)(C)C)ccn23)cc1
  FPR: 10

CCCC1=C(C(=O)OCC)C(c2ccc3c(c2)OCO3)NC(=O)N1C (stereo unspecified)
  FPR: i

COCCCNC(=O)CSc1nc2ccccc2c(=O)n1CC1CCC(C(=O)NCCc2ccccc2)CC1 (stereo unspecified)
  FPR: i

CCCCCCc1cc2c3c(c(=O)oc2cc1OCC(=O)OCC)CCC3
  FPR: 28

CCOC(=O)C1=C(C)NC2=C(C(=O)C(C(=O)OC)C(C)C2)C1c1cc(Br)c(OC)c(OCC)c1 (stereo unspecified)
  FPR: 12

CCC(C)OC(=O)C1=C(C)NC2=C(C(=O)C(C(=O)OC)C(C)C2)C1c1ccc(OC)c(OC)c1 (stereo unspecified)
  FPR: 12

CCCNC(=O)CC(NS(=O)(=O)c1ccc(OC)cc1)C(C)C (stereo unspecified)
  FPR: i

CC1(C)CC(=O)C2=C(C1)N(c1ncn[nH]1)C(N)=C(C#N)C2c1ccc(Br)cc1 (stereo unspecified)
  FPR: i

CC1=C(C(=O)OC2CCCCC2)C(c2ccc3c(c2)OCO3)NC(=O)N1 (stereo unspecified)
  FPR: 14

CCCCN(CCCC)S(=O)(=O)c1cccc(C(=O)Nc2ccc(C(=O)O)cc2)c1
  FPR: i

O=C(Nc1cccc([N+](=O)[O-])c1)[C@H]1CC=CC[C@H]1C(=O)O
  FPR: i

Cc1ccnc(NC(=O)C(NC(=O)C2CCCCC2)C(C)C)c1 (stereo unspecified)
  FPR: i

Cc1ccc(C(=O)C2=C(N)OC3=C(C(=O)CC(C)(C)C3)C2c2ccccc2Cl)cc1 (stereo unspecified)
  FPR: i

CC(=O)N1CCc2cc(S(=O)(=O)NC(C(=O)NC3CCN(Cc4ccccc4)CC3)C(C)C)ccc21 (stereo unspecified)
  FPR: i

CCC(C)(C)C1CCc2c(sc(NC(=O)C3CCCCC3C(=O)O)c2C(=O)OC)C1 (stereo unspecified)
  FPR: 80*

Cc1ccc(C(=O)COC(=O)C(CCCCN2C(=O)C3C4C=CC(C4)C3C2=O)N2C(=O)C3C4C=CC(C4)C3C2=O)cc1C (stereo unspecified)
  FPR: i

CC(C)C(Nc1ncnc2sc3c(c12)CCC3)C(=O)O (stereo unspecified)
  FPR: 8

COC(=O)C1C(=O)C2=C(CC1C)NC(C)=C(C(=O)OC1CCCC1)C2c1cc(OC)c(O)c(OC)c1 (stereo unspecified)
  FPR: 25

CC1CCCN(C(=O)c2ccc(S(=O)(=O)c3ccccc3Cl)c([N+](=O)[O-])c2)C1 (stereo unspecified)
  FPR: 4

COC(=O)C1C(=O)C2=C(CC1C)NC(C)=C(C(=O)OC1CCCCCC1)C2c1ccc(OC)c(O)c1 (stereo unspecified)
  FPR: 39

CCOC(=O)c1cccc(Nc2cc(N3CCCC(C)C3)c3noc4c3c2C(=O)c2ccccc2-4)c1 (stereo unspecified)
  FPR: 4

CC12C(=O)N(c3cccc(O)c3)C(=O)C1C1C=CC2C1 (stereo unspecified)
  FPR: i

CCCc1cc2c(=O)c(-c3ccc(C(=O)OCC)o3)coc2cc1OC(C)=O
  FPR: 17

COc1ccccc1-c1c(C(F)(F)F)oc2c(CN(C)C3CCCCC3)c(O)ccc2c1=O
  FPR: 22

CCOC(=O)c1cc2c(=O)n3ccccc3nc2n(CC(C)C)c1=NC(=O)c1cccc(C)c1
  FPR: 5

CC1CCCN(c2cc(Nc3cccc(C(=O)O)c3)c3c4c(onc24)-c2ccccc2C3=O)C1 (stereo unspecified)
  FPR: 7

CCOc1cc(C2NC(=O)NC(C)=C2C(=O)OCC(C)C)ccc1O (stereo unspecified)
  FPR: i

CCOc1cc(C2C(C(=O)OC(C)C)=C(C)NC3=C2C(=O)C(C(=O)OC)C(C)C3)ccc1O (stereo unspecified)
  FPR: i

CC(C)(C)c1ccc(OCC(=O)Oc2ccc3c4c(c(=O)oc3c2)CCC4)cc1
  FPR: i

Cc1ccccc1CN(CC1CCC(C(=O)NO)CC1)S(=O)(=O)c1cccc(C(F)(F)F)c1 (stereo unspecified)
  FPR: 10

CCOCCOC(=O)C1=C(C)NC2=C(C(=O)C(C(=O)OC)C(C)C2)C1c1cccc(OC)c1 (stereo unspecified)
  FPR: 46

CCCOC(=O)C(CC)Oc1ccc2c3c(c(=O)oc2c1C)CCC3 (stereo unspecified)
  FPR: i

COc1ccc(/C=C2/CCCC3=C2OC(N)=C(C#N)C3c2ccc(OC)c(OC)c2)cc1OC (stereo unspecified)
  FPR: i

COc1ccc(CCNC(=O)CCCCCn2c(SCC(=O)NCCC(C)C)nc3ccsc3c2=O)cc1OC
  FPR: i

COc1ccc2c(c1)C(C)=CC(C)(C)N2C(=O)CN1C(=O)c2cccc([N+](=O)[O-])c2C1=O
  FPR: i

CCOC(=O)CSc1nc2ccccc2c(=O)n1CC1CCC(C(=O)NCC2CCCO2)CC1 (stereo unspecified)
  FPR: i

CCC(C)C(NC(=O)OC(C)(C)C)C(=O)NC(C(=O)NC(CCC(=O)OCc1ccccc1)C(N)=O)C(C)C (stereo unspecified)
  FPR: 2

CCOC(=O)c1cc2c(=O)n3ccccc3nc2n(CC(C)C)c1=NC(=O)c1ccc2ccccc2c1
  FPR: i

CC1=C(C(=O)OCC(C)C)C(c2cc3c(cc2[N+](=O)[O-])OCO3)C2=C(CC(c3ccccc3)CC2=O)N1 (stereo unspecified)
  FPR: i

CCN(CC)CCCNC(=O)c1cn(CC(C)C)c(=O)c2cc(OC)c(OC)cc12
  FPR: i

CC(C)OC(=O)C(C)Oc1ccc2c(=O)c(Oc3ccccc3Br)c(C(F)(F)F)oc2c1 (stereo unspecified)
  FPR: i

Cc1c(NC(=O)C2CC=CCC2C(=O)O)c(=O)n(-c2ccccc2)n1C (stereo unspecified)
  FPR: i

COc1cc2c(C(=O)N3CCN(c4cccc(C(F)(F)F)c4)CC3)cn(CC(C)C)c(=O)c2cc1OC
  FPR: i

COC(=O)C1C(=O)C2=C(CC1C)NC(C)=C(C(=O)OC1CCCCCC1)C2c1ccc2c(c1)OCO2 (stereo unspecified)
  FPR: i

CC1(C)CC(=O)C(=Cc2cn(-c3ccccc3)nc2-c2cccs2)C(=O)C1
  FPR: 13

COc1cc2c(C(=O)NCCCN3CC(C)CC(C)C3)cn(CC(C)C)c(=O)c2cc1OC (stereo unspecified)
  FPR: i

CC(=O)N1CCCc2cc(S(=O)(=O)NC(C(=O)NCc3ccc(C)cc3)C(C)C)ccc21 (stereo unspecified)
  FPR: i

Assay outcomes: PubChem, NMMLSC

Some of the compounds tested (hit frequency here may not be typical).
